Vif A3G: HIV-1 Vif–A3G interaction blockers – biochemical, TR-FRET, GST-Vif 1-94, biotin-A3G peptide, dose response retest, primary screen (AID 1117319); TR-FRET GST-Vif / biotin-A3G peptide binding; higher % means a stronger effect; test concentration not given here; strong numbers were not always called active; one-dose inhibition, %; IC50 in µM for titrated hits; 260,000 compounds, 0.57% hits;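 active = above the screen mean plus three standard deviations and confirmed in dose response; inconclusive = results disagree or hit not tested in dose response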;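 also: Vif residues 1-94 fused to GST binding biotinylated APOBEC3G peptide 110-148; 0% = full assay without inhibitor and 100% = GST in place of GST-Vif; retest series ran down from 100 µM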
E coli growth: inhibitors of Escherichia coli growth | OD600, 23 h; stronger effect = lower value | OD600 absorbance (concentration not given with the values) | 330,000 compounds, 0.21% hits | AID 1053175;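 active = OD600 absorbance below the run mean of sample wells minus 3.6 SD, in any replicate, cut at about 0.56 in these data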;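 also: stock transfer was 300 nL into about 60 µL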
MLL AF4-AF9 inh: blocks AF4 peptide binding to human AF9. AlphaScreen, biotin-AF4 peptide binding to FLAG-AF9. 350,000 compounds, 0.47% hits. P42568. inhibition, % at 10 µM;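 active = every replicate reaching a set inhibition limit, whatever the replicate mean, cut at about 25% in these data; inconclusive = mean inhibition reaches that limit but some replicates miss it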;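 also: 0% = plate neutral control median and 100% = total signal loss; the record names both 10 and 1 µM as test concentration; the first replicate is given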
FGF22 binding: binders of recombinant human FGF22 by thermal shift; SYPRO orange fluorescence; percent of sucrose octasulfate shift, DMSO zero; Q9HCT0; AID 651658; calls only at 9.99 µM; 340,000 compounds, 1.5% hits;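 active = melting point raised past a set limit in the mean and every replicate; inconclusive = no clear call; three in four hits are not shown here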
Target sequence (Q9HCT0 whole entry, looked up): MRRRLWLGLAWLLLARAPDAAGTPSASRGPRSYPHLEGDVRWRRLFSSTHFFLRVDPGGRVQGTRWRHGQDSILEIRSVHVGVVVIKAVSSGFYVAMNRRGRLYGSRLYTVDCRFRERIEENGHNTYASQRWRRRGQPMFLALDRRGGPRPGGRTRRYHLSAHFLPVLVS
UCH37 inh: blocks the human deubiquitinase UCH37 | purified proteasome/UCH37, Ub-AMC cleavage fluorescence | inhibition, % (no concentration beside the values) | 330,000 compounds, 0.33% hits;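 active = mean of two replicates above 20%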;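 also: 0% = compound-free wells with enzyme and 100% = wells lacking proteasome; stock transfer was 100 nL into about 20 µL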
Target sequence (Q9Y5K5 whole entry, looked up): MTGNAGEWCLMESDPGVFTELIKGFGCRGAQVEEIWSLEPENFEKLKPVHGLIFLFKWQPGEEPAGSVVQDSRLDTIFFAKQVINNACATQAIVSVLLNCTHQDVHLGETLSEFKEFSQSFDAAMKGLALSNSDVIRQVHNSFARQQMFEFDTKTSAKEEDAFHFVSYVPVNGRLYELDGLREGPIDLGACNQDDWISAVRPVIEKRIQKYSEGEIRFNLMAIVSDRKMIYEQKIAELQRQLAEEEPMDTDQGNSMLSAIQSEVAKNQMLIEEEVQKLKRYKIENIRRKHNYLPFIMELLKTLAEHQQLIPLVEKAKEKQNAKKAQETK
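Material: human UCH37 enzyme supplied as purified proteasome complex. Measure: % inhibition of Ub-AMC cleavage fluorescence. Medium: pH 7.4 Tris-HCl (50 mM) with ovalbumin, ATP-MgCl2, DTT. Times: 30 min preincubation with enzyme, 25 min cleavage at room temperature. Detection: AMC fluorescence intensity at 355/460 nm.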
RanGTP-Impb inh: disruptors of Ran-importin-beta complex formation – biochemical, FRET, CFP-Ran, YFP-importin-beta, homogeneous, primary screen | inhibition, % (no concentration beside the values) | AID 2216 | 300,000 compounds, 1.1% hits | cell-free CFP-Ran/YFP-importin-beta FRET ratio;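 active = most replicates above 15%; inconclusive = exactly half above 15%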;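 also: 0% = DMSO wells and 100% = Ran loaded with GDP instead of GTP; wells of about 40 µL received 100 nL stock; the first replicate is given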
HNF4A DNA FP: change in binding of human HNF4 alpha to DNA | HNF4a-FITC DNA binding, fluorescence polarization, 1 h | activity change, % at 10 µM | 360,000 compounds, 0.3% hits | AID 1224865; in the data active = activity change above about 30%, passing the limit was not always enough;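 also: controls were the assay level and a saturating level of protein; the project sought stronger binding though the title names inhibitors; some compounds called inactive have numbers as strong as hits; positive values seem to mean higher polarization but the record does not say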
Target sequence (P41235 whole entry, looked up): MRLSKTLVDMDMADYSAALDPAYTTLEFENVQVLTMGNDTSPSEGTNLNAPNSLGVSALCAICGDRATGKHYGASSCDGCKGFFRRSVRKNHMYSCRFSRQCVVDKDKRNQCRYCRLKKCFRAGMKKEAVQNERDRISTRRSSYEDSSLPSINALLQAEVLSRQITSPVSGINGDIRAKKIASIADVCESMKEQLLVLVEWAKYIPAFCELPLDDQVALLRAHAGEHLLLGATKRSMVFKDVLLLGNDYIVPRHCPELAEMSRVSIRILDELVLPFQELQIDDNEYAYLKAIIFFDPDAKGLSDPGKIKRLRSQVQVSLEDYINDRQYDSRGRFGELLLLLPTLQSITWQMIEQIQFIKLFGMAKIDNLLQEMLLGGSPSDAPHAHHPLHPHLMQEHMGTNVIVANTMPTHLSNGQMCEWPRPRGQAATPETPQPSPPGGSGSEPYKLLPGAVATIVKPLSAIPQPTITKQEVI
* = called active by the depositor; i = inactive; ? = inconclusive; · = not tested or not shown; + = active, no number.

SMILES	Vif A3G	E coli growth	MLL AF4-AF9 inh	FGF22 binding	UCH37 inh	RanGTP-Impb inh	HNF4A DNA FP
NS(=O)(=O)c1ccc(CCNC(=O)COC(=O)COc2cccc(C(F)(F)F)c2)cc1	9.7%	0.675	0.2	i	-1.9	·	0.6
Nc1cc(-c2ccc(Br)cc2)nn1S(=O)(=O)c1ccccc1	18.6%	0.774	-3.6	i	5.1	-2.2	2.6
S=C(NCc1ccco1)Nc1ccc(Cl)cc1	-12.1%	0.69	-2.4	i	-4.4	-2.7	0.1
Cc1ccc(NC(=O)CN(C)C(=O)Cc2ccc(Cl)c(Cl)c2)cc1	·	0.667	2.0	i	2.0	0.4	2.4
Cc1cc(C)c(S(=O)(=O)Nc2nccs2)c(C)c1	-1.1%	0.674	0.1	i	3.9	0.0	3.3
CCCn1c2ccccc2c2nnc(SCc3[nH]c(=O)[nH]c3C(=O)CCCCC(=O)OCC)nc21	-16.1%	0.724	·	·	3.8	-1.0	2.0
O=C(COC(=O)C1CCN(S(=O)(=O)c2ccc(Cl)c(C(F)(F)F)c2)CC1)NCc1ccco1	-3.8%	0.687	0.2	i	0.2	3.6	-2.0
Cc1cccc(S(=O)(=O)NC(=O)C2(C)CCN2C(=O)Cc2ccc(C(C)(C)C)cc2)c1 (stereo not drawn)	·	·	-7.2	i	·	·	0.3
CC(NC(C(=O)c1ccccc1)c1ccccc1)c1ccccc1 (stereo not drawn)	-1.1%	0.689	-4.8	i	0.9	·	-0.2
COc1cccc(-c2nc(NC(C)(C)C)c3ccccc3n2)c1O	?	0.683	·	·	3.5	-3.4	2.2
CN(C)CCn1c(=O)n(Cc2ccccc2)c(=O)c2c3c(sc21)CCCCC3	-7.0%	0.636	26.0*	i	0.9	-1.8	-2.0
COc1cccc(NS(=O)(=O)c2ccc(OC)c(OC)c2)c1	6.5%	0.664	·	·	2.3	-1.1	1.3
COc1cc(NC(=O)c2ccc3c(c2)OCO3)c2ncccc2c1	3.7%	0.718	·	·	-32.5	-1.1	0.1
O=C(NNC(=O)C1CCCC1)c1ccccc1F	·	·	-0.4	i	·	1.9	1.4
CC(=O)Nc1nc(C)c(C(C)C)s1	9.8%	0.684	?	i	0.8	0.6	2.1
Nc1ncnc(Nc2ccccc2Cl)n1	-8.9%	0.683	-1.3	i	6.0	3.7	-5.0
Cc1ccc(-n2cc(C(=O)c3ccccc3O)cn2)cc1	-6.7%	0.681	·	·	1.4	-1.5	3.8
Cc1ccc(S(=O)(=O)NCCCC(=O)N2CCC(C)CC2)cc1	-5.0%	0.65	2.3	i	0.0	0.7	2.3
COC(CNC(=O)c1ccc2c(c1)ncn2-c1cccc(F)c1)OC	-0.6%	0.694	-2.3	i	5.6	0.9	0.2
CC(=O)Nc1ccc(-c2ccnc3c2CC(C(=O)NC(C)C)O3)cc1 (stereo not drawn)	·	·	-3.1	i	·	·	0.6
COCCN(C(=S)Nc1c(C)cccc1C)C(C)c1cccnc1 (stereo not drawn)	31.2%	0.728	-16.2	i	3.8	-0.1	-2.4
CCN(CC)C(=O)Nc1ccccc1C	-2.6%	0.725	·	·	-2.2	0.4	-5.5
On1c(-c2ccccc2Cl)nc2ncccc21	0.7%	0.634	-1.1	i	2.8	-1.8	1.7
Cc1cccc(NC(=O)c2ccc3c(c2)C(=O)N(c2ccccc2C)C3=O)n1	3.8%	0.646	4.2	i	0.6	-3.8	2.6
Cc1cc(C(=O)N/N=C/c2ccc(N(C)C)cc2)c2ccccc2n1	-1.8%	·	0.3	i	·	?	0.5
NC(=O)CSc1nnc(COc2ccccc2)n1CCc1ccccc1	0.1%	0.659	·	·	0.5	4.3	-2.0
O=C(NC1CCCCC1)C(c1ccco1)N(C(=O)c1csnn1)c1ccc(Cl)cc1 (stereo not drawn)	·	0.68	1.4	i	1.1	2.4	-0.9
COc1cc(C)c(C#N)c(OC)n1	-10.9%	0.739	·	·	6.1	-3.8	2.0
CCn1c(/C=C/c2c[nH]c3ccccc23)nc2ccccc2c1=O	·	0.68	-1.4	i	-9.6	11.8	-2.1
CC1CCN(c2nc3c(c(=O)[nH]c(=O)n3C)n2Cc2ccccc2Cl)CC1	2.3%	0.671	-3.1	i	7.2	2.0	-1.5

In another format: results already given
SMILES | Vif A3G | E coli growth | MLL AF4-AF9 inh | FGF22 binding | UCH37 inh | RanGTP-Impb inh | HNF4A DNA FP
COC(CNC(=O)c1ccc2c(c1)ncn2-c1cccc(F)c1)OC | -0.6% | 0.694 | -2.3 | i | 5.6 | 0.9 | 0.2
CC(=O)Nc1ccc(-c2ccnc3c2CC(C(=O)NC(C)C)O3)cc1 (stereo not drawn) | · | · | -3.1 | i | · | · | 0.6
COCCN(C(=S)Nc1c(C)cccc1C)C(C)c1cccnc1 (stereo not drawn) | 31.2% | 0.728 | -16.2 | i | 3.8 | -0.1 | -2.4

(next part)
SMILES	Vif A3G	E coli growth	MLL AF4-AF9 inh	FGF22 binding	UCH37 inh	RanGTP-Impb inh	HNF4A DNA FP
O=C(Nc1ccon1)c1nc[nH]c1C(=O)NCc1ccccc1	·	0.716	-2.7	i	2.6	·	-2.8
NC(N)=NCCCS(=O)(=O)Nc1ccc(Nc2c3ccccc3nc3cc([N+](=O)[O-])ccc23)cc1	19.0%	·	78.3*	i	·	·	-24.6
Cc1nn(-c2ccccc2)c(Cl)c1/C=C1\C(=O)N(C)C(=S)N1C	-0.3%	0.706	40.2*	i	9.1	-3.5	1.3
CCc1nnc(NC(=O)c2ccc(Cl)nc2)s1	11.3%	0.701	-3.5	i	0.5	2.6	3.5
CC(=O)c1sc(NC(=O)COc2ccc(C)c(C)c2)nc1C	-5.9%	0.662	-1.5	i	0.3	0.2	-1.2
COc1ccc(OCC(O)CNC(=O)Nc2ccc(C(C)(C)C)cc2)cc1 (stereo not drawn)	-8.6%	0.666	-1.5	i	1.8	1.4	-0.3
CS(=O)(=O)NCc1ccc(C(=O)NCCOc2ccccc2)cc1	-1.1%	0.631	-80.2	i	2.0	0.9	-1.0
CCCCNC(=O)Nc1ccccc1C(=O)NCCC	-7.4%	0.681	·	·	0.4	-6.3	4.1
COc1ccc(CN2C(=O)c3ccccc3C2C(=O)NC2CCC(C)CC2)c(OC)c1 (stereo not drawn)	-3.3%	0.699	-3.1	i	-1.0	?	-0.2
Cc1c(NC(=O)CSc2nc(N)cc(N)n2)c(=O)n(-c2ccccc2)n1C	0.8%	0.694	-2.7	i	1.5	·	-2.0
COc1ccc(S(=O)(=O)N(C)C)cc1NC(=O)CSC(C)C(=O)Nc1cc(C)on1 (stereo not drawn)	-7.9%	0.627	-4.7	i	2.4	·	1.0
Cc1nn(-c2ccccc2)c(C)c1C(=O)OCC(N)=O	-3.0%	0.682	-0.7	i	0.1	-3.4	5.0
CCOc1ccc(NC(=S)N(CCc2c(C)[nH]c3ccc(C)cc23)Cc2cccnc2)cc1	2.5%	0.703	1.5	i	3.1	-0.7	-2.8
CCOc1ccc(NC(=O)Cn2nnc(-c3ccccc3F)n2)cc1	0.4%	0.681	·	·	3.0	-1.5	-4.4
Cc1cccc(C2c3[nH]c4ccccc4c3CCN2Cc2ccc(C)s2)n1 (stereo not drawn)	8.6%	0.735	5.1	i	3.6	10.4	3.2
O=C(NCc1ccco1)c1cc([N+](=O)[O-])ccc1N1CCCCC1	1.7%	0.704	5.7	i	5.7	-4.5	-0.2
COC(=O)CSc1nc(C2CC2)nc2ccccc12	0.2%	0.673	0.1	i	5.4	-5.6	2.3
Cc1ccc(S(=O)(=O)NC(=O)COc2ccccc2)cc1	2.1%	0.701	-3.9	i	1.0	0.2	1.3
COC(=O)c1ccc(C)c(NC(=O)CSc2sc3c(O)cc(=O)[nH]c3c2C#N)c1	·	0.696	-0.9	·	5.3	3.5	-19.3
Cc1nc(NC(=O)C2CC2)sc1C(=O)N(C)C	10.5%	0.735	·	·	-1.2	-2.1	-4.2
NNc1nc(-c2ccccc2Cl)nc2ccccc12	·	0.686	4.4	i	2.4	2.8	1.4
CC(=O)Nc1ccc2c(CSc3nnc(-c4cccnc4)n3-c3ccc(C)cc3C)cc(=O)oc2c1	0.6%	0.666	·	·	-13.8	-0.6	5.4
Cc1ccc2c(c1)nnn2C1CCN(S(C)(=O)=O)CC1	-2.2%	0.702	·	·	0.1	3.1	-1.4
Cc1ccc(S(=O)(=O)N2CC(C)C(=O)CC2C)cc1 (stereo not drawn)	·	0.641	-4.9	i	0.7	-0.7	-1.5
COC(=O)C1CCN(C(=O)NC2CC(=O)N(c3ccc4c(c3)OCCO4)C2)CC1 (stereo not drawn)	-3.6%	0.671	0.4	·	0.3	-1.1	7.7
CCCCNC1=CC(=O)C(=O)c2ccccc21	-0.3%	0.418*	-1.3	i	49.0*	?	-3.5
O=C(C1=C(O)C(=O)N(CCN2CCOCC2)C1c1ccco1)c1cc2ccccc2o1 (stereo not drawn)	·	·	0.9	i	·	3.6	-4.0
C=CCN(CC=C)C(=S)NC(=O)/C=C/c1ccc(OC)cc1	-2.3%	0.7	1.5	i	4.6	1.9	-2.9
CCOc1ccc(N=C2C(=O)N(CN3CCOCC3)c3ccccc32)cc1	-2.1%	0.771	·	·	2.6	6.6	4.4
CCCCn1c(N)c(N(CCC(C)C)C(=O)c2ccc3ccccc3c2)c(=O)[nH]c1=O	23.9%	0.692	-3.3	i	0.5	·	1.1
Cc1cc(OC(=O)Nc2ccccc2)ccc1Cl	2.3%	·	0.8	i	·	·	-0.9
COc1cccc(-c2cc(C(=O)N3CCc4ccccc4C3)no2)c1	12.1%	0.712	·	·	22.5*	·	-0.2
CCOC(=O)c1c(C)n(C)c2ccc(O)c(CN3CCCCC3)c12	12.7%	0.748	·	·	0.2	-4.1	1.0
Cc1cnc(C(=O)OCc2ccc(C#N)cc2)cn1	?	0.673	-3.0	i	5.0	-0.1	2.6
CCc1cc(C(=O)OC)c(N2C(=O)C3C4C=CC(C4)C3C2=O)s1 (stereo not drawn)	0.6%	0.688	·	·	3.8	-0.1	1.9
COc1cccc(CN(C)CCCn2ccc(NC(=O)OCc3ccccc3)nc2=O)c1	·	·	6.5	i	·	·	1.5
CCOC(=O)C1=C(C)Nc2ccccc2N=C1NC(=O)C(c1ccccc1)c1ccccc1	10.1%	0.723	-0.9	i	3.1	-5.8	2.0
NC(=O)c1c(NC(=O)Cn2cnc([N+](=O)[O-])n2)sc2c1CCCC2	8.1%	0.651	-6.5	i	4.0	-0.2	-1.3
CCCCN(C(=O)c1ccc(Br)o1)C1CCS(=O)(=O)C1 (stereo not drawn)	0.6%	0.628	-4.8	i	-1.2	2.9	3.2
Cc1ccc(OCCn2ncc3ccccc3c2=O)c(C)c1	-0.5%	0.697	-4.5	i	-1.8	1.6	-0.4
Nc1ccc(C(=O)N/N=C/c2c[nH]c3ccccc23)cc1	0.2%	·	0.0	+	·	-0.9	-0.7
c1ccc(OCCCc2nc(-c3ccncc3)no2)cc1	-2.6%	0.671	·	·	1.1	3.2	2.4
COc1cc(NC(=O)COc2ccccc2)ccc1NC(=O)c1ccco1	·	0.671	1.6	i	-1.5	?	-4.0
COc1ccc(/C=C/C(=O)OC(C)CN2CCCCC2)cc1 (stereo not drawn)	·	0.702	-4.1	i	3.0	0.4	-2.8
COc1ccc(/C=C/C(=O)NC(C)CCc2ccccc2)cc1OC (stereo not drawn)	4.8%	0.701	·	·	-1.7	1.4	2.6
COc1ccc(NC(=O)COC(=O)C2CC(=O)N(CCc3ccc(OC)c(OC)c3)C2)cc1Cl (stereo not drawn)	-3.9%	0.701	-1.6	i	5.1	·	-1.0
O=C1NC(=Nc2ccccc2)SC1Cc1cccc(Cl)c1Cl (stereo not drawn)	?	0.671	-3.0	i	-0.7	2.3	-1.4

Screens deposited in PubChem by several laboratories.

Not all compounds are listed; rates above refer to the full screens.
